Source: PubChem BioAssay
NPYLR7 agonist: mosquito NPYLR7 agonism; HEK293T NPYLR7/Galpha15, GCaMP6s calcium fluorescence; activation, % at 10 µM; 0.15% of 270,000 active; AID 1259423; in the data active = activation above about 40%;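 also: 0% = vehicle and 100% = reference agonist at the receptor; some compounds past the cut are filed as inactive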
NPYLR7 agonist max-min: recorded beside NPYLR7 agonist, whose call it bears; activation, %; measured here: Max-Min RFU normalised activation; some inactives read as strong as hits;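 span of the calcium signal over five minutes; 0% = vehicle and 100% = native peptide agonist; compound fluorescence can raise it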
* = called active by the depositor; & = joins results of further samples.

canonical_smiles	NPYLR7 agonist	NPYLR7 agonist max-min
C=CCCC(O)CN(CCCOC)Cc1nc2scc(-c3ccc(OC)cc3)c2c(=O)[nH]1 (stereo not given)	-1	20
Cc1cc(C)nc(NC2=NC3CCCCC3N2)n1 (stereo not given)	11	14
COc1ccc(Cn2c(-c3ccco3)n[nH]c2=O)cc1	5	2
O=C(NCCNc1cccnc1)c1nc2ccccc2[nH]1	18	12
N#Cc1ccc(CNC(=O)NCc2ccc(OC(F)F)cc2)c(F)c1	7	4
O=C(CC1=CCCCC1)NC1CCc2[nH]c3ccc(Cl)cc3c2C1 (stereo not given)	13	7
COC(=O)c1nn(-c2ccc(C)cc2C)cc1O	0	-1
COc1cccc(NC(=O)NCCS(=O)(=O)c2c(C)[nH]c3ccccc23)c1OC	5	10
Nc1cc(-c2ccco2)nn1C1CCS(=O)(=O)C1 (stereo not given)	8	8
COc1ccccc1C(=O)NCCN=C1NS(=O)(=O)c2ccccc21	3	4
Cc1nc(N2CCCC2C(=O)NCC2CC3C=CC2C32CC2)nc2cc(S(C)(=O)=O)ccc12 (stereo not given)	23	6
O=C1c2ccc([N+](=O)[O-])cc2C(=O)N1CCCCN1C(=O)c2ccc([N+](=O)[O-])cc2C1=O	-7	-17
Cc1nn(-c2ccc(F)cc2)c(C)c1C(=O)N1CCN(S(=O)(=O)c2ccccc2Cl)CC1	-3	-4
COc1ccc(CCN(C)S(=O)(=O)c2ccc(OC)c(N3CCN(S(=O)(=O)c4c(C)cc(C)cc4C)CC3)c2)cc1OC	17	6
CCC(=Nn1c(CC)n[nH]c1=S)c1ccc(O)cc1	1	1
c1ccc(-c2nccn2CC2CCN(C3CCCC3)CC2)nc1	3	2
CCN1CCN(C(=O)CCC2CCN(CC3CCOC(C)(C)C3)CC2)CC1 (stereo not given)	18	11
FC(F)(F)C1CN(c2nc(-c3ccccc3)nc3c2CCC3)CCO1 (stereo not given)	-13	-14
Cc1ccc(OCC(=O)NNC(=O)NCc2ccccc2F)cc1C	-4	-8
CCC(C)(C)C1CCc2sc3ncnc(N4CCOCC4)c3c2C1 (stereo not given)	2	-2
COc1ccccc1CNC(=O)Nc1nn(Cc2ccc(C(F)(F)F)cc2)c2ccccc12	6	9
Cc1c(CNC(=O)NCCC(O)C(F)(F)F)oc2ccc(F)cc12 (stereo not given)	0	-5
COc1ccc(CC(=O)N(CC(=O)N2CCc3sccc3C2c2ccc(Cl)cc2Cl)Cc2ccc(F)cc2)cc1 (stereo not given)	-4	-9
O=C(CSc1ncnc2sccc12)NC(=O)NC1CCCC1	9	2
CCCC1CCC(c2ccc(-c3nc(-c4ccc([N+](=O)[O-])cc4)no3)cc2)CC1 (stereo not given)	-7	-10
CN1CCN(C(=O)c2nn3c(C(F)(F)F)cc(-c4ccccc4)nc3c2Br)CC1	3	0
CC(Nc1ccccc1)C(=O)Nc1ccc(Br)cc1F (stereo not given)	-5	-9
O=[N+]([O-])c1cccc(C2c3cccn3CCCN2Cc2ccco2)c1 (stereo not given)	-9	0
CCC(C(=O)N(Cc1cc(NC(=O)C(C)C)ccc1N(C)C)CC1CC1)c1ccccc1 (stereo not given)	-7	3
COC(=O)c1c(NC(=O)CSc2ncnc3sc4c(c23)CCCC4)sc(C)c1C	-2	-6
Cc1cccc(NC(=O)CC2CSc3nc4c(cnn4-c4ccccc4)c(=O)n32)c1C (stereo not given)	1	0
CN(Cc1ccccc1)C(=O)c1nc2ccccn2c1CNCCN1CCCCC1	5	11
O=C(NS(=O)(=O)c1cccc2cnccc12)c1ccnc(Cl)c1	0	-3
CCS(=O)(=O)N1CCN(c2ccc(-n3ccc(C)n3)nn2)CC1	-4	-8
O=C(NCC1CCCN(C2CCSCC2)C1)c1ccc(-c2ccccc2)cc1 (stereo not given)	9&0	3&-4
COC(=O)c1cc2sc(Cl)cc2n1Cc1cc(=O)n2ccccc2n1	4	4
O=C(CCl)N1CCc2sccc2C1	2	-5
O=C(c1cc2n(n1)CCN(Cc1ccccc1)C2=O)N1CCOCC1	0	5
COc1cc(OC)cc(C(=O)N2CCCC(OCc3ccccc3)C2)c1 (stereo not given)	-5	-3
CCCNC(=O)NC(=O)CN1CCCN(Cc2ccc(C#N)cc2)CC1	8	2
CCOC(=O)CN(Cc1nccn1C)[C@@H]1C[C@@H]2CO[C@H](c3ccccc3)C[C@@H]2C1	22	27
CCOc1ccc(-c2nc(CN3N=NC4C(=O)N(c5ccc(F)cc5)C(=O)C43)c(C)o2)cc1 (stereo not given)	2	-5
Cc1ccncc1C(=O)NCc1cccnc1N(C)CCc1ccccn1	-2	0
COc1cc(C(=O)N2CCOC(COc3cccc(C(F)(F)F)c3)C2)ccc1F (stereo not given)	-2	-5
Cc1cc(C(=O)CN2C(=O)NC3(CCCCC3C)C2=O)c(C)n1Cc1ccco1 (stereo not given)	7	6
Cc1ccc(S(=O)(=O)c2ccc(N3CCC(C(=O)NCc4ccccc4Cl)CC3)nn2)cc1	2	-2
CCN(CC)C1CCN(Cc2nc(-c3ccc(C(F)(F)F)cc3)no2)C1 (stereo not given)	5	-6
CC(Oc1ccccc1)C(=O)OCc1cc(-c2cc3ccccc3o2)on1 (stereo not given)	-2	-3
CN1CCc2nc3sc(C(=O)Nc4nc5ccccc5s4)c(N)c3cc2C1	16	10
C(=C\c1ccccc1)/CSc1nnc(-c2ccncc2)o1	8	6

Record cards (already shown). Screens in order: NPYLR7 agonist	NPYLR7 agonist max-min
COc1cc(C(=O)N2CCOC(COc3cccc(C(F)(F)F)c3)C2)ccc1F (stereo not given) is listed as -2	-5
C(=C\c1ccccc1)/CSc1nnc(-c2ccncc2)o1 is listed as 8	6

(listing goes on)
canonical_smiles	NPYLR7 agonist	NPYLR7 agonist max-min
CNC(=O)NC(=O)C(c1ccccc1)N1CCN(C)CC1C (stereo not given)	-3	-5
O=C(NCC1(N2CCOCC2)CCCC1)C1CCC(=O)N(C2CCCC2)C1 (stereo not given)	2	0
CN(C)c1ccc(N)cc1CN(CC1CCCO1)C(=O)Cc1cccs1 (stereo not given)	6	3
Cc1nc(-c2ccc(Cl)cc2)sc1C(C)N (stereo not given)	7	4
COc1cc(O)c(C(=O)c2ccccc2)cc1O	-9	-14
COc1ccc(Br)cc1S(=O)(=O)N(C)CCc1ccccn1	-6	-15
Cc1cc(C)c(-c2csc(=NC3CC3)n2N=C2CCCC2)cc1C	4	2
CCOC(=O)C1(CCOc2ccccc2)CCCN(C(=O)c2cnccn2)C1 (stereo not given)	3	1
COCCN(Cc1nc2c(F)cccc2[nH]1)CC(F)(F)F	8	2
O=S1(=O)C=C(N2CCN(C3CCCCC3)CC2)c2ccccc21	1	2
CCOC(=O)c1oc2c(c1C)C(=O)CC(C)(C)C2	0	-4
CCCN(CCC)C(=O)c1cc2c(=O)n3cccc(C)c3nc2n1C	5	9
O=S(=O)(NCCN1CCOCC1)c1cccc(Br)c1	-6	-12
CCN1CCN(c2ccccc2NS(=O)(=O)c2cc(Br)ccc2OC)CC1	5	-1
COCCOC(=O)C1=C(C)N(C)C(=S)NC1c1ccc(NC(=O)Nc2ccc(F)c(F)c2)cc1 (stereo not given)	-5	11
O=C(N[C@@H]1CCCCC1NC(=O)C1CCN(C(=O)c2cccc(F)c2)CC1)c1ccc(F)cc1 (stereo not given in full)	2	6
O=C(NCC1CCCN(Cc2cccc(O)c2)C1)c1cccnn1 (stereo not given)	7	18
COc1ccccc1CN(C(=O)C(C)Cn1nc(C)nc1C)C1CC1 (stereo not given)	0	-7
Cn1c(=O)c2cc(-c3nc4ccccc4[nH]3)c(-c3cccc([N+](=O)[O-])c3)nc2n(C)c1=O	2	3
COC(=O)COC(=O)c1[nH]c(C)c(C(C)=O)c1C	4	10
COc1ccc(OC)c(C(O)c2coc3ccc(O)c(CN4CCOCC4)c23)c1 (stereo not given)	14	9
COCCN(Cc1ccc(OC)cc1)c1c(C)nc2ccc(C(=O)NCCNC(C)=O)cn12	-6	-11
CC(NC(=O)CCCc1nc2ccccc2c(=O)[nH]1)c1ccccc1Cl (stereo not given)	1	4
Cc1ncsc1C(=O)N1CCCC1CC(O)c1ccccc1 (stereo not given)	6	1
Cn1cc(C(=O)N2CCCCCC2)cc(NC(=O)c2cccc(C(F)(F)F)c2)c1=O	-16	-21
CC(C)CC(=O)NCC1CCN(c2ccc(Cl)cc2)C1 (stereo not given)	7	3
Cn1c(-c2cccnc2)cc2cnc(Nc3cccc(S(C)(=O)=O)c3)cc21	6	9
COc1ccc(CNC(=O)c2ccc3c(=O)n4nc(Nc5ccccc5C)sc4nc3c2)cc1	3	8
O=C(NC1CC1)C1CCCN(C2CCN(C(=O)CCc3cnccn3)CC2)C1 (stereo not given)	17	7
CCOC(=O)c1cnc(-c2cccnc2)nc1N(C)C(C)c1ccccc1 (stereo not given)	1	5
O=[N+]([O-])c1cc(CS(=O)(=O)Oc2ccc(Cl)cc2)c(O)c([N+](=O)[O-])c1	-2	4
Cc1ccc(-c2nc(CC(=O)N3CC(=O)Nc4cnccc43)cs2)cc1	11	9
CCOC(=O)C1(C)CCCCN1C(=O)c1ccc(OC)c(F)c1 (stereo not given)	-2	-8
CCC(C(=O)NCc1ccccn1)n1c(=O)n(-c2cccc(C)c2)c(=O)c2ccc(Cl)cc21 (stereo not given)	1	5
CCCCCCN(C(=O)COCc1ccccc1)C(C)c1nc2ccccc2c(=O)n1-c1ccc(CC)cc1 (stereo not given)	1	-4
C=CC(C)(O)CN(CCOC)CC(=O)N1CCc2sccc2C1COc1cccc(F)c1 (stereo not given)	-5	33
O=C(CN1CCN(CC(=O)c2ccco2)CC1)NCc1ccccc1Cl	0	-4
COC(=O)c1c(C)c(C(=O)C(C)N(Cc2ccco2)C(=O)c2ccc(Br)cc2)c(C)n1C (stereo not given)	-7	-8
Cc1ccccc1C1c2ccsc2CCN1CC(=O)N1CCCN(C(=O)c2cccc(Br)c2)CC1 (stereo not given)	-2	-7
C=C(C)COc1ccc(-c2onc(C)c2-c2ccccc2OC)c(O)c1	-4	-6
CC(C)N(C(C)C)S(=O)(=O)c1ccc(N2CCCN(C)CC2)nc1	0	-3
Fc1ccc(-c2csc(SCc3nnc(-c4ccc(F)cc4)o3)n2)cc1	12	10
Cc1ccc(CN(C)C(=O)c2sccc2S(N)(=O)=O)o1	-2	-4
O=[N+]([O-])c1cnn(CCCc2nc(-c3ccc(-n4cccc4)cc3)no2)c1	1	3
Cc1ccc(C2CC(C(F)(F)F)n3ncc(C(=O)Nc4ccccc4Cl)c3N2)cc1 (stereo not given)	4	-3
CC(C)(Oc1ccc(Cl)cc1)C(=O)N1CCN(c2ncnc3c2nnn3-c2ccc(F)cc2)CC1	-9	-18
O=C1N(Cc2cccc(Cl)c2)C[C@@H]2C[C@@H](c3ccc4nsnc4c3)N3CCC[C@@]123	10	5
CC(Sc1ccccc1Cl)C(=O)N(CCO)Cc1ccsc1 (stereo not given)	13	11
CC(C)NCC(=O)N1CCc2sccc2C1COc1ccccc1F (stereo not given)	0	8
CCN(CC)CCc1nc(-c2ccccc2)no1	-6&-1	-10&-5

Remaining list, next part
canonical_smiles	NPYLR7 agonist	NPYLR7 agonist max-min
Cc1cnc(COC(=O)c2ccccc2OC2CCC2)cn1	0	-2
CCc1nc(C2CCCN(C(=O)Nc3ccccc3C(F)(F)F)C2)no1 (stereo not given)	0	-2
O=[N+]([O-])c1ccc(N2CCOCC2)cc1NN=C1CCCCC1	-1	-2
COc1ccc2oc(=NCc3ccccc3)c(C(N)=O)cc2c1	-6	-1
Cc1ccc(C(N)=O)cc1-c1ccc2[nH]ccc2c1	-5	-7
Cc1cccnc1C(NC(=O)C1CCN(CCc2ccc(F)cc2)CC1)c1ccccc1 (stereo not given)	10	3
c1ccc(CSc2ncnc3c2nnn3Cc2ccccc2)cc1	8	20
CCc1ccc(C(=O)NCC2CCN(Cc3cnn(C)c3)C2)cc1 (stereo not given)	0	-4
CC1CCC(NC(=O)/C=C/c2ccc3c(c2)OCO3)CC1 (stereo not given)	-14	-19
Cc1ccccc1CN1CCC(CN(CC2CCCO2)C(=O)c2nonc2C)CC1 (stereo not given)	14	5
CC(=O)Nc1ccc(N2C(=O)C3C4C=CC(C4)C3C2=O)cc1 (stereo not given)	-2	-5
Cc1nn2c(-n3ccnc3)cc(-c3ccccc3)nc2c1-c1ccccc1	2	6
Fc1ccc(OCc2nnc(-c3ccc(Br)cc3)o2)cc1	-8	6

Molecules from the list above containing an NH in an aromatic ring:
canonical_smiles	NPYLR7 agonist	NPYLR7 agonist max-min
C=CCCC(O)CN(CCCOC)Cc1nc2scc(-c3ccc(OC)cc3)c2c(=O)[nH]1 (stereo not given)	-1	20
COc1ccc(Cn2c(-c3ccco3)n[nH]c2=O)cc1	5	2
O=C(NCCNc1cccnc1)c1nc2ccccc2[nH]1	18	12
O=C(CC1=CCCCC1)NC1CCc2[nH]c3ccc(Cl)cc3c2C1 (stereo not given)	13	7
COc1cccc(NC(=O)NCCS(=O)(=O)c2c(C)[nH]c3ccccc23)c1OC	5	10
CCC(=Nn1c(CC)n[nH]c1=S)c1ccc(O)cc1	1	1
COCCN(Cc1nc2c(F)cccc2[nH]1)CC(F)(F)F	8	2
Cn1c(=O)c2cc(-c3nc4ccccc4[nH]3)c(-c3cccc([N+](=O)[O-])c3)nc2n(C)c1=O	2	3
COC(=O)COC(=O)c1[nH]c(C)c(C(C)=O)c1C	4	10
CC(NC(=O)CCCc1nc2ccccc2c(=O)[nH]1)c1ccccc1Cl (stereo not given)	1	4
Cc1ccc(C(N)=O)cc1-c1ccc2[nH]ccc2c1	-5	-7

Some of the compounds tested (hit frequency here may not be typical).
